High-throughput results as filed in PubChem.
AID923 = qHTS Assay for Allosteric/Competitive Inhibitors of Caspase-1: Spectroscopic Profiling in AFC Spectral Region | actives 1.1% (n = 75,000) | Potency, µM (top dose mostly 57.5 µM), inactives show at the highest dose fluorescence increase, usual class: activators | AID 923, 2007 | compound fluorescence, AFC spectral region (405/520 nm); almost no hit is shown here; active means well fitted activation curve with a large enough effect; inconclusive means small, poorly fitted or top-dose-only effect;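 further: potency means the concentration at half of the fitted maximal effect; 0% is about no effect; scaled to a free AFC standard on each plate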
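Titrations up to 57 uM read every 20 sec for 3 min (405/520 nm) with 50 nM caspase 1 and 5 uM Ac-WEHD-AFC, pH 7.5 HEPES buffer. Fluorescence-vs-time intercept gave baseline, scaled against on-plate AFC standard.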
A488 autofl = qHTS Assay for Spectroscopic Profiling in A488 Spectral Region; actives 0.1% (n = 59,000); max dye equivalency, M; compound autofluorescence, A488 spectral region, dye equivalency; stronger effect = higher value; active = above 10 nM dye equivalent; inconclusive = 1 to 10 nM; inactive = 1 nM or less; about half of its hits are not listed in these tables;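 further: highest value over a series up to 38 µM; compound alone in buffer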
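Intrinsic compound fluorescence is measured in 100 mM Tris buffer at pH 8.0 following 15 min incubation at room temperature. Intensities at 480 nm excitation/540 nm emission are calibrated to an on-plate A488 concentration series, giving dye-equivalent concentrations.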
A647 autofl = qHTS Assay for Spectroscopic Profiling in A647 Spectral Region | Compound fluorescence, A647 channel (570/671 nm), Tris buffer | max dye-equivalent concentration, M | 59,000 tested, under 10 active; active means above 1 µM dye equivalent; inconclusive means 0.1 to 1 µM; inactive means 0.1 µM or less;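 further: values scaled relative to a standard on each plate; highest value over a series up to 38 µM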
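Each compound's intrinsic fluorescence at 570 nm excitation and 671 nm emission is measured across its concentration series in 100 mM Tris, pH 8.0, after 15 min at room temperature, and reported relative to an A647 curve.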
Resorufin fluor = qHTS Assay for Spectroscopic Profiling in Resorufin Spectral Region; Compound fluorescence, resorufin region 547/598 nm, buffer; stronger effect = higher value; max dye-equivalent concentration, M; actives 0.04% (n = 59,000); AID 588, 2007; active = above 10 nM dye equivalent; inconclusive = 1 to 10 nM; inactive = 1 nM or less; a few of its hits are not listed in these tables; further: highest value over a series up to 38 µM
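Read-out: intrinsic compound fluorescence at ex 547/em 598 nm after 15 min at RT in pH 8.0 Tris (100 mM). Values expressed as resorufin-equivalent concentration from per-plate standard series.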
TSHR agonist = qHTS Assay for Agonists of the Thyroid Stimulating Hormone Receptor. Thyrotropin receptor (Homo sapiens), P16473. HEK293-CNG-TSHR cells (CNG channel as cAMP sensor), membrane potential dye, cAMP. Potency, µM (titrated, usually from 57.1 µM), for the others: at the top dose activation, most hits filed as activators. actives 0.48% (n = 73,000). AID 926, 2007; active = well fitted activation curve of enough size with the parental cells flat; inconclusive = any curve in the parental cells; inactive = parental cells flat and receptor cells flat or falling; further: potency means the concentration at half of the fitted maximal effect; % of control where 0% means no effect; weak receptor curves with flat parental cells got no call and are not listed
Target sequence (P16473 whole entry, looked up): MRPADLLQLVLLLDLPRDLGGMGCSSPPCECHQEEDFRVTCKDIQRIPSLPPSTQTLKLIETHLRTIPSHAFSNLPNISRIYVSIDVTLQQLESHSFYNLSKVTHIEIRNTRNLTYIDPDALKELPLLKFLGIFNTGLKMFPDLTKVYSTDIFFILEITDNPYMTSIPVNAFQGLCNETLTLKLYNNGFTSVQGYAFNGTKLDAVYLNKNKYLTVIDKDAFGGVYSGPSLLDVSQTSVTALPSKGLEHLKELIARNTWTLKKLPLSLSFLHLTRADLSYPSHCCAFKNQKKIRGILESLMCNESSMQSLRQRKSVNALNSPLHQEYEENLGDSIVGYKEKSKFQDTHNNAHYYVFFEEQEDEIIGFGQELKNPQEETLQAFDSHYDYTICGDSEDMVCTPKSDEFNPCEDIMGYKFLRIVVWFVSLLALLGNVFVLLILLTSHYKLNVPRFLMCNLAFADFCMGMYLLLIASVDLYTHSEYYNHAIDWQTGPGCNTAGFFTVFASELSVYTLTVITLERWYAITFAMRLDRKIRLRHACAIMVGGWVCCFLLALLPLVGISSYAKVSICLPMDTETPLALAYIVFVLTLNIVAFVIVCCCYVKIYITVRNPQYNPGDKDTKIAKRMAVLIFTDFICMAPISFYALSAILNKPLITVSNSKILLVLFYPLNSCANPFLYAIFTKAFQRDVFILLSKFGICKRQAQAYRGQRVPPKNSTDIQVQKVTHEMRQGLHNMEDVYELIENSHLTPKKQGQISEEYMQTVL
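HEK 293 cells stably expressing TSHR and a modified CNG channel, with CNG-only parental cells as counterscreen, were preloaded 60 min at room temperature with membrane potential dye containing 100 uM RO 20-1724. Compound exposure was 30 min, and depolarization was read as fluorescence at 590 nm.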
The depositor's hits bear a star; i = inactive; ? = inconclusive; . = no result given; [ ] = another dose, or the depositor's remark. This is a subset; the hit share may differ from the screen's.

SMILES | AID923 | A488 autofl | A647 autofl | Resorufin fluor | TSHR agonist
NC1=NC(c2ccccc2Cl)n2c(nc3ccccc32)N1 (centres undefined) | 0.0% | i | 1e-09 | i | 0.1%[11.4 µM]
OCCn1nc2c3ccccc3nc-2n(-c2ccccc2)c1=S | -0.3% | i | 1.18e-08 | i | 12.4%
CCOC(=O)Cc1nnc(NC(=O)CSc2nnc3c4ccccc4n(C(C)C)c3n2)s1 | -1.8% | i | 1e-09 | i | 9.2%[11.4 µM]
Cc1cc(-c2nnc(-c3ccccc3)c(-c3ccccc3)n2)c(C)o1 | -0.5% | i | 1.2e-09 | i | 0.1%[11.4 µM]
Cc1cc(Nc2ccc(C)c(Br)c2)n2nc(C)nc2n1 | -3.9% | . | . | . | 17.2%
Cc1ccc(-c2nc(Nc3ccccc3)n[nH]2)cc1 | 1.1% | i | 3.9e-09 | i | ?
O=C(Nn1cnnc1)C(c1ccccc1)c1ccccc1 | . | i | 1e-09 | i | .
O=C(O)c1ccc(NS(=O)(=O)c2ccc(Cl)cc2)cc1 | -0.4% | i | 1.75e-08 | i | ?
CCN1CCCC1CNC1=NCCCCC1 (centres undefined) | 1.4% | i | 1.5e-09 | i | 1.9%
C[C@@H](C(=O)NCCF)[C@H]1C[C@]1(C)[C@H](NC(=O)OCc1ccccc1)c1ccccc1 | 0.1% | . | . | . | ?
O=C1c2cccnc2C(=O)N1CO | -0.5% | i | 3.79e-08 | i | -4.3%[11.4 µM]
COc1cc2nc(-c3cccs3)oc(=O)c2cc1OC | -1.9% | i | 3.2e-09 | i | 1.0%
c1ccc(CCNc2ncnc3c2cnn3-c2ccccc2)cc1 | 0.0% | i | 1.9e-09 | i | ?
CCCCCC(=O)Nc1ccccc1N1CCN(c2ccccc2)CC1 | 0.2% | i | 1e-09 | i | ?
CCCC(C(=O)NCc1ccco1)N(C(=O)CNS(=O)(=O)c1ccccc1)C1CCCC1 (centres undefined) | -0.2% | i | 1e-09 | i | 7.5%
Fc1cccc(-c2cc3nc4c(c(N5CCN(c6cnccn6)CC5)n3n2)CCCC4)c1 | -0.9% | i | 1e-09 | i | -1.2%[11.4 µM]
CS(=O)(=O)NCc1nnc(SCC(=O)NC2CCCCC2)n1-c1ccc(F)cc1 | -2.9% | i | 1e-09 | i | -9.6%
CCC1C2CN(C(C)=O)CC=C2C(C#N)=C(N)C1(C#N)C#N (centres undefined) | 14.5% | i | 1.21e-08 | i | 13.1%
CCOC(=O)CSc1nc2nc(C)cc(C)n2n1 | 0.9% | . | . | . | 15.7%
Cc1ccc(NC(=O)c2ccco2)c(NC(=O)CN2C(=O)c3ccccc3C2=O)c1 | -0.3% | i | 1.41e-08 | i | 5.8%
CCC(=O)Nc1cccc(-c2nnc(SCC(=O)NCc3ccco3)n2C)c1 | . | i | 1.91e-08 | i | .
O=C(C1CC1)N(CCc1ccccc1)Cc1nc2ccccc2c(=O)[nH]1 | 2.4% | i | 4.5e-09 | i | ?
N#Cc1cccc(-c2nccc(NCc3cccs3)n2)c1 | 4.8% | i | 1.73e-08 | i | 7.0%
COc1cc([C@@H]2[C@H]3CN(C)CC=C3C(C#N)=C(N)C2(C#N)C#N)cc2c1OCO2 | . | i | 5.13e-08 | i | .
Cc1ccc(C)c(NC(=O)CSc2nnc(-c3ccccc3C)o2)c1 | -1.6% | i | 2e-09 | i | ?
SMILES | AID923 | A488 autofl | A647 autofl | Resorufin fluor | TSHR agonist
O=C(Nn1cnc2ccccc2c1=O)c1ccccc1Cl | 0.8% | i | 1e-09 | i | -2.9%
CCOc1ccc(S(=O)(=O)N2CCN(C)CC2)c(C)c1C | 0.4% | i | 1e-09 | i | 8.7%
Cc1nn2c3c(cnc2c1-c1ccccc1)C(=O)CC(c1ccco1)C3 (centres undefined) | -0.9% | i | 4e-08 | i | 11.4%
COc1ccc(C2CC(c3ccc(F)cc3)Nc3nc(N)nn32)cc1OC (centres undefined) | 3.4% | . | . | . | 1.0%
COC(=O)[C@@]1(Cc2ccc(F)cc2)[C@H]2c3cc(C(=O)N4CCCC4)n(Cc4c(CO)[nH]cc(C)c4=O)c3C[C@H]2CN1C(=O)c1ccccc1 | -2.4% | . | . | . | 1.5%
O=C(Nc1cnn(C23CC4CC(CC(C4)C2)C3)c1)c1cnn2cccnc12 | -1.7% | i | 3.47e-08 | i | 2.2%
COC(=O)Nc1ccc(Oc2ccccc2)cc1 | -0.4% | i | 1e-09 | i | -7.6%
C=CCc1ccc(O)c(OC)c1 | -1.3% | . | . | . | -0.5%
Cc1cn(CC[C@H](N)C(=O)O)c(=O)[nH]c1=O | 1.2%[11.5 µM] | i | 4.1e-09 | i | -5.5%[11.4 µM]
COCCCNC(=O)c1ccc(CS(=O)(=O)c2ccc(OC)cc2)o1 | -2.7% | . | . | . | -1.3%
Cc1ccc(C)c2[nH]c(=O)c(CCNC(=O)c3ccc4c(c3)OCO4)cc12 | -2.1% | i | 1e-09 | i | .
Cc1csc(NC(=O)CNS(=O)(=O)c2cccs2)n1 | 2.1% | i | 1e-09 | i | 2.6%
CCC(=O)N1CCc2cc(Br)cc(S(=O)(=O)CCC(=O)NCc3ccco3)c21 | 0.6% | i | 3.5e-09 | i | 3.8%
O=C(NCc1cccnc1)c1cc(-c2ccco2)on1 | -2.0% | i | 1e-09 | i | 3.9%
Cc1ccc(C(=O)N(CN2CCCC2=O)c2ccc(F)cc2)cc1C | -0.5% | i | 3.06e-08 | i | -7.2%[11.4 µM]
COc1ccccc1-c1noc(CCC(=O)Nc2cccc(C(F)(F)F)c2)n1 | 0.9% | i | 1.2e-09 | i | -4.3%
Cc1cccc(NC(=O)CSc2nnc(CSc3nc(C)cc(C)n3)o2)c1 | 1.3% | i | 1.4e-08 | i | 2.8%
O=C(Nc1ccc2c(c1)OCO2)c1cc2ncc(Br)cn2n1 | -2.8% | i | 6.16e-08 | i | -2.5%
Cc1ccc(-c2nnc(-c3ccccc3)o2)cc1Br | . | i | 1e-09 | i | .
COC(=O)C1=C(C)Nc2nc(-c3ccccc3)nn2C1c1ccc(C)o1 (centres undefined) | -0.4% | . | . | . | ?
O=C(NCc1ccco1)C(NS(=O)(=O)c1cccc2nsnc12)c1ccccc1 (centres undefined) | 0.3% | i | 1e-09 | i | 8.8%
CCCN1C2CCCC1CC(NC(=O)Nc1cccc(C(C)=O)c1)C2 (centres undefined) | -0.2% | i | 1.6e-09 | i | 6.6%
COCCNC(=O)Cc1ccc(Br)cc1 | 2.9% | . | . | . | 1.1%[11.4 µM]
CCN(CC)c1ccc(C2Nc3cccc4cccc(c34)N2)c(O)c1 | . | i | 7.03e-08 | i | .
CSCC[C@H](NC(=O)OC(C)(C)C)c1nnc(SCC(N)=O)o1 | 0.4% | i | 1e-09 | i | 18.4%

2 entries from above, with each value named.
> Cc1ccc(C)c(NC(=O)CSc2nnc(-c3ccccc3C)o2)c1
  AID923: -1.6%
  A488 autofl: i
  A647 autofl: 2e-09
  Resorufin fluor: i
  TSHR agonist: ?
> O=C(Nn1cnc2ccccc2c1=O)c1ccccc1Cl
  AID923: 0.8%
  A488 autofl: i
  A647 autofl: 1e-09
  Resorufin fluor: i
  TSHR agonist: -2.9%

Next records:
SMILES | AID923 | A488 autofl | A647 autofl | Resorufin fluor | TSHR agonist
O=C(CSc1nnnn1C1CCCC1)N1CCCc2ccccc21 | -0.4% | i | 1.19e-08 | i | ?
CCCCOc1ccc(-c2nnn(CC(=O)NCc3ccco3)n2)cc1 | 0.3% | i | 8.4e-09 | i | 5.5%
O=c1ccn([C@H]2O[C@H](CO)[C@@H](O)[C@@H]2O)c(=O)[nH]1 | . | i | 1e-09 | i | 5.7%
CCOC(=O)/C=C1\SCC(=O)N1CCOc1cccc(Br)c1 | -3.6% | i | 4.78e-08 | i | ?
COc1ccc(N2C(=O)C(Cl)=C(N3CCN(Cc4ccccc4)CC3)C2=O)cc1 | 1.3% | i | 1e-09 | i | 15.0%
Cn1cc(C(=O)NC2CCCCCCC2)c(=O)c2cc(S(=O)(=O)N3CCCC3)ccc21 | 0.3% | i | 2.62e-08 | i | -6.5%
CC1(C(=O)Nc2nccs2)Cc2ccccc2C(=O)O1 (centres undefined) | 1.2% | i | 3.33e-08 | i | .
CCOC(=O)C1=C(C)OC(N)=C(C#N)C1c1c(C)nn(-c2ccc(C)cc2)c1Cl (centres undefined) | 0.4% | i | 2.8e-09 | i | .
C=CCN(C(=O)CNC(=O)c1ccco1)C(C(=O)NC1CCCCC1)c1ccc(OC)cc1OC (centres undefined) | 0.4% | i | 1e-09 | i | 22.2%
COC(=O)CSc1nc2ccccc2n1CC(=O)N(C(C)C)C(C)C | -1.1% | i | 1e-09 | i | 10.3%
C1CCOC1 | 4.1% | . | . | . | ?
FC(F)(F)c1ccccc1-c1cc(NCc2cccnc2)ncn1 | 0.4% | i | 3.36e-08 | i | 10.4%
O=S(=O)(CC(CN1CCCC1)N1CCCC1)c1ccc2ccccc2c1 (centres undefined) | 1.0% | i | 3.36e-08 | i | 12.7%
CCOC(=O)c1c(NC(C)=O)sc2c1CCCNC2=O | 0.0% | i | 2.07e-08 | i | 2.9%
C[C@H](NC(=O)C1(c2ccccc2)CCN(C(=O)[C@H]2CSCN2C(=O)OC(C)(C)C)CC1)C(=O)O | -0.6% | i | 1e-09 | i | -3.7%
COc1ccc(N(C(=O)COc2ccccc2)C2C=CS(=O)(=O)C2)c(OC)c1 (centres undefined) | 0.7% | i | 1e-09 | i | -0.1%[11.4 µM]
COc1ccc(NC(=O)C2CCCN(S(=O)(=O)c3cccc4cccnc34)C2)cc1OC (centres undefined) | -0.6% | . | . | . | 18.1%
N#CCCN(C1CCCCC1)S(=O)(=O)CCOc1ccccc1 | 0.8% | i | 1e-09 | i | 6.9%
CO/N=C\C[C@@H]1C=C[C@H](OC(C)=O)[C@H](COC(C)=O)O1 | 1.7%[11.5 µM] | . | . | . | -7.2%[11.4 µM]
CC(C)c1nc2cc3ccccc3cc2[nH]1 | -0.1% | i | 1e-09 | i | 9.9%
C=CCc1cccc2cc(NC(C)=O)c(=O)oc12 | 2.4% | i | 2.4e-09 | i | 0.3%
CC12CCC(C(=O)N3CCN(c4ncccn4)CC3)(c3nc4ccccc4nc31)C2(C)C (centres undefined) | -0.8% | i | 2.29e-08 | i | 27.8%
O=S1(=O)CCN2C(=N1)SC1=C2CCN(Cc2ccccc2)C1 | -0.4% | i | 5.2e-09 | i | 17.7%
N[C@H](Cc1c[nH]c2ccccc12)C(=O)O | 0.2% | . | . | . | 6.0%
Cc1ccccc1-c1nc(Nc2ccncc2)c2ccccc2n1 | -0.4% | i | 3.42e-08 | i | 4.7%
COc1ccc2[nH]cc(CCNc3cc(-c4ccccc4Cl)ncn3)c2c1 | 1.7% | i | 4e-08 | i | 1.7%
O=C(c1ccccc1)c1coc2ccc(O)c(Cl)c12 | 3.4% | i | 1.6e-09 | i | ?
CC(C)(C)n1nnnc1C(c1ccccc1F)N(Cc1ccco1)CC1CCCO1 (centres undefined) | 1.8% | i | 2.2e-09 | i | ?
COc1ccc(-c2nc3cnc(Nc4ccccc4)nc3n(C[C@H]3CCCO3)c2=O)cc1 | ? | i | 2.78e-08 | i | 7.6%

Compound profiles, from the list above:
Entry for NC1=NC(c2ccccc2Cl)n2c(nc3ccccc32)N1 (centres undefined) : AID923: 0.0%; A488 autofl: i; A647 autofl: 1e-09; Resorufin fluor: i; TSHR agonist: 0.1%[11.4 µM]
Entry for c1ccc(CCNc2ncnc3c2cnn3-c2ccccc2)cc1 : AID923: 0.0%; A488 autofl: i; A647 autofl: 1.9e-09; Resorufin fluor: i; TSHR agonist: ?
